# Screens deposited in PubChem BioAssay by National Center for Advancing Translational Sciences (NCATS).
# NPR1 antag: Natriuretic polypeptide receptor (hNpr1) antagonism - Primary qHTS; Atrial natriuretic peptide receptor 1 (Homo sapiens), P16066; HEK293 hNpr1 GloSensor cGMP, ANP-stimulated luminescence; Potency, µM (doses to about 46.3 µM), for inactives: at the top dose activity change, negative = inhibition, hits mostly inhibitors; hit rate 1.6% among 76,000; AID 1347048, 2019; active = well fitted inhibition curve with a large enough effect; inconclusive = small, poorly fitted or top-dose-only effect; inactive = no such curve, though single readings can be large or run the other way;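 also: nearly all actives have a fitted effect of over 60% in size; nearly all hits also lower the signal before the agonist is added; a reference antagonist and vehicle were the controls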
# Target sequence (P16066 whole entry, looked up): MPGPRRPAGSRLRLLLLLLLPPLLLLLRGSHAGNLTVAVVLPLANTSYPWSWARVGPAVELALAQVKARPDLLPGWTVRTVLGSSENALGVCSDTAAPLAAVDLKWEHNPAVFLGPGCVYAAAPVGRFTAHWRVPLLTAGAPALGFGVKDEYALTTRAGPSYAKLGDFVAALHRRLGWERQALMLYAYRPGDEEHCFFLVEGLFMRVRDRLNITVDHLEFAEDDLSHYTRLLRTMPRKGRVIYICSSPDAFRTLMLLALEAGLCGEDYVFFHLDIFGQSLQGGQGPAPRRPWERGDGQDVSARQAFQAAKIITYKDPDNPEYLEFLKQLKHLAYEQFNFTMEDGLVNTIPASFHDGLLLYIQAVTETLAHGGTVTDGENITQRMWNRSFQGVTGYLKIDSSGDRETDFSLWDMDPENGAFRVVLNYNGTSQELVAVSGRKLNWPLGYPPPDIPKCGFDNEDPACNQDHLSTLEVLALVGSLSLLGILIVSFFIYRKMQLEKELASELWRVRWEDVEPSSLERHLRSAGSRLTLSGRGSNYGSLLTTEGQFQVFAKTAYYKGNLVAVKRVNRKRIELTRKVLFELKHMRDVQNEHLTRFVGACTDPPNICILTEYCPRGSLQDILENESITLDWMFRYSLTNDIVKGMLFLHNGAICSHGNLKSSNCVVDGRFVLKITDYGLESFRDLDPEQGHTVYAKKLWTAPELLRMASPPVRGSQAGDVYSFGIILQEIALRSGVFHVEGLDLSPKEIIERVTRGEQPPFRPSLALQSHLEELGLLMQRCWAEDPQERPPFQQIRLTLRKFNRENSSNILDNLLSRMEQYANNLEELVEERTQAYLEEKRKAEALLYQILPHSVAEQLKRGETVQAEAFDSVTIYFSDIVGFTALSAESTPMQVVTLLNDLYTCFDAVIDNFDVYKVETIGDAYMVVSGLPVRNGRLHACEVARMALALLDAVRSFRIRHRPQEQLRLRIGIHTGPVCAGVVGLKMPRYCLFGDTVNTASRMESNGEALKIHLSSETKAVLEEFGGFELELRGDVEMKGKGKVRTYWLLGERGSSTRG
#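 Compound pre-incubated 30 min at room temperature on GloSensor-loaded HEK293 cells stably carrying hNpr1 and the pGS-40F cGMP biosensor. Stimulation uses hNppA at 0.1 nM final; luminescence is taken at baseline and 20 min post-agonist.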
# Active calls of the source: *; ? = inconclusive; [ ] = another dose, or the depositor's remark. % is scaled to controls: 0 for no effect and ±100 for the full control effect; potency is read from the fitted curve at half-maximal effect. This is a subset, so the mix of outcomes need not match the whole.
NPR1 antag | Compound
4% | O=C(NC1C[C@H]2CC[C@@H](C1)N2C(=O)c1ccc(OC(F)(F)F)cc1)c1ccncc1 (stereo partly specified)
4% | CCCn1c(C)cnc1CC1CCN(S(=O)(=O)c2ccccc2)C1 (stereo unspecified)
9% | O=C(COc1ccc(F)cc1)N1CCCC(Cc2noc(-c3ccccn3)n2)C1 (stereo unspecified)
-2% | O=C(Cc1ccsc1)NCc1nnc2ccc(-c3ccccc3)nn12
-17% | CC(C)(C(=O)N1Cc2cnn(Cc3ccc(F)cc3)c2C1)c1ccccc1
-1% | c1cc(-c2nc(CC3CCCNC3)no2)ccn1 (stereo unspecified)
-2% | COc1ccccc1CNC(=O)CC1=C2CCCCC2N(C)C1=O (stereo unspecified)
4%[70.6 µM] | CCc1nc2c(c(-c3ccc(Cl)cc3)n1)CCN(CC1CC1)CC2
-2%[70.6 µM] | CCCCCC(=O)N1CCC(O)(c2csc(CN(CC)CC)n2)CC1
-11% | CCOc1ccccc1NC(=O)Cn1c(-c2ccccc2)nc(C)c(CCO)c1=O
6% | Cc1ccc(S(=O)(=O)Nc2ccc(C)n(CC(=O)Nc3ccccc3)c2=O)cc1
-23% | CCCc1cc(C(=O)N2CCCC(Cc3ccccc3F)(C(=O)OCC)C2)n(C)n1 (stereo unspecified)
1% | CCc1ccccc1S(=O)(=O)N1C[C@@H](F)C[C@H]1C(=O)N1CCc2ccccc2C1
-13% | CC1(Cc2ccc3c(c2)OCO3)CCCN(C(=O)CCCn2ccnc2)C1 (stereo unspecified)
-10% | COc1ccc(NC(=O)c2cn3ccnc(-c4ccc(C)cc4)c3n2)c(OC)c1

# 3 of these compounds in a different format:
mol | NPR1 antag
CCc1ccccc1S(=O)(=O)N1C[C@@H](F)C[C@H]1C(=O)N1CCc2ccccc2C1 | 1%
CC1(Cc2ccc3c(c2)OCO3)CCCN(C(=O)CCCn2ccnc2)C1 (stereo unspecified) | -13%
COc1ccc(NC(=O)c2cn3ccnc(-c4ccc(C)cc4)c3n2)c(OC)c1 | -10%

# As entered above:
# NPR1 antag with CC(C)(C(=O)N1Cc2cnn(Cc3ccc(F)cc3)c2C1)c1ccccc1 → -17%
# NPR1 antag with CCOc1ccccc1NC(=O)Cn1c(-c2ccccc2)nc(C)c(CCO)c1=O → -11%
# NPR1 antag with O=C(NC1C[C@H]2CC[C@@H](C1)N2C(=O)c1ccc(OC(F)(F)F)cc1)c1ccncc1 (stereo partly specified) → 4%
# NPR1 antag with O=C(COc1ccc(F)cc1)N1CCCC(Cc2noc(-c3ccccn3)n2)C1 (stereo unspecified) → 9%

# (cont.)
NPR1 antag | Compound
-8% | O=C(c1ccc2c(c1)OCO2)N1CCC(c2n[nH]c(=O)n2-c2ccccc2)CC1
-24% | Cc1ccc(NC(=O)c2ccc(CN3C(=O)NC4(CCOCC4)C3=O)cc2)cc1
-8% | c1ccc(-c2noc(-c3cncnc3N3CCC(N4CCCCC4)CC3)n2)cc1
7% | CCC(CNC(=O)c1csc2nc(-c3ccccc3Cl)cn12)N(C)C (stereo unspecified)
0% | N#Cc1ccc(N2CCCC3(CCC(=O)N(Cc4ccccc4)C3)C2)nc1 (stereo unspecified)
1% | COCc1noc(C2CCCCCN2C(=O)NCc2ccc(F)cc2)n1 (stereo unspecified)
3% | COc1cccc(C(=O)N2CCC[C@H]2c2nc(-c3ccccc3)no2)c1
4% | O=C(N[C@H]1CCN2C(=O)c3cc(-c4ccc(F)cc4F)ccc3NC(=O)[C@H]12)C1CCCC1
0% | CC1CCCN(C(=O)Cn2ccn3nc4c(c3c2=O)CCCC4)C1 (stereo unspecified)
-22%[70.6 µM] | O=C1OCC2(CCN(Cc3c[nH]c4ccccc34)C2)N1Cc1ccccc1 (stereo unspecified)
2% | CC(C)CCNC(=O)C1CCN(C(=O)c2ncn3c2COC(c2ccc(F)cc2)C3)CC1 (stereo unspecified)
-8% | O=C(c1cccc(F)c1)N1CCC2(CC1)N(CC1CC1)C(=O)CS2=O (stereo unspecified)
0% | O=C1CCN(S(=O)(=O)c2ccccc2)CCCC(C(=O)NCCc2c[nH]c3ccccc23)CCN1 (stereo unspecified)
2% | COc1ccc(-c2noc([C@@H]3CCCN3C(=O)Cc3ccc(F)cc3)n2)cc1OC
6%[70.6 µM] | CN(C(=O)c1ccccc1)C1CCOc2ccccc21 (stereo unspecified)
-15%[70.6 µM] | Cc1ccc2c(C(=O)NCc3ccc(Cl)nc3)cnn2c1
0% | O=C(Cc1cccc(Cl)c1)N1CCC(n2cc(-c3nc(-c4ccccc4)no3)nn2)CC1
3% | CC(=O)N1CCN(c2ncnc3c2CN(c2ccccc2F)C(=O)CN3C)CC1
-3% | CN(C)C(=O)N1CCc2nc(-c3ccccc3)nc(-c3ccc(Cl)cc3)c2C1
2%[70.6 µM] | CCN(CC)C(=O)CC[C@H]1CNC(=O)[C@H]2NCC[C@H]2N1C
-3% | CC1(C)CN(Cc2cn(Cc3ccccc3)nc2-c2cc3ccccc3o2)CCO1
-4% | CCn1cc(-c2ccccc2)cc1C(=O)NC(C)c1cccnc1 (stereo unspecified)
-12%[70.6 µM] | COc1ccccc1-c1cnc(NCc2ccccc2)c2c1CCO2
-1%[70.6 µM] | CN1[C@@H](CCC(=O)NCc2cccs2)CNC(=O)[C@@H]2[C@H]1CCN2Cc1cccs1
1% | CSc1ccc(-c2noc(-c3nnn4c3COC(c3ccc(F)cc3)C4)n2)cc1 (stereo unspecified)
? | CC(C)N1C(=O)CO[C@H]2CCN(Cc3cccs3)CC[C@@H]21
-2%[70.6 µM] | COCCNc1ncccc1-c1noc([C@@H]2CCCN2Cc2cccc(C#N)c2)n1
-1% | CCCCC(=O)N1CCC(N(Cc2ccccc2)C2CCOCC2)CC1
? | COCCN1C(=O)c2ccccc2C(C(=O)NCc2ccc(OC)cc2)C12CCCC2 (stereo unspecified)
-13% | CN(Cc1csc(-c2ccccc2)n1)C(=O)c1ccc2nccn2c1
5% | Cc1cc(C)cc(C(=O)N2CCC(Cc3nc(-c4cnccn4)no3)CC2)c1
-1% | Cc1nc(CN2CCOC3(CCN([S+](=O)([O-])c4ccc(C#N)cc4)CC3)C2=O)cs1
2% | Cc1ccc(C(=O)N2CCCN(Cc3ccncc3)C(c3ccccc3)CC(=O)NCC2)s1 (stereo unspecified)
-2% | CCc1cc(=O)n(CC(=O)Nc2ccc(C(C)=O)cc2)c(N2CCOCC2)n1
-21%[70.6 µM] | CN(C)C[C@H]1O[C@H](Cc2cc(-c3ccccc3)on2)CC[C@@H]1O
-1% | CC(C)COc1cc(=O)n2c(c1C(=O)NCCCN1CCOCC1)CCCCC2
2% | O=C1CCN(C(=O)[C@@H]2CCCN2S(=O)(=O)c2ccc3c(c2)CCC3)CCCCCCN1
-9%[70.6 µM] | O=[S+]([O-])(c1ccccc1)N1CC2(COCCN(Cc3ccc(Cl)cc3)C2)C1
-15%[70.6 µM] | COc1ncccc1-c1cc2c(nc1-c1ccccc1)nc(C(=O)NCCN(C)C)n2C
-4% | COc1ccccc1C(=O)N[C@@H]1CN(c2ncccn2)C[C@H]1CN(C)C
7% | CNC(=O)[C@@H]1CN(Cc2cccc(Cl)c2F)C[C@H]1CO
0%[70.6 µM] | COCc1cn2c(=O)n(C)cc(-c3ccc(OC)nc3)c2n1
3%[70.6 µM] | COc1ccc(CC(=O)Nc2ccc([C@@H](O)[C@H]3COCC(=O)N3CC(C)C)cc2)cc1
-1%[70.6 µM] | CC(C)(C)CC(=O)N[C@@H]1C=C(C(=O)NCCC(N)=O)C[C@@H](O)[C@@H]1O
-13% | COc1cc(-c2nc3c([nH]2)CC(c2ccccc2OC)CNC3=O)ccc1O (stereo unspecified)
2% | CN(C)c1ccc(CN2CC[C@@H]3[C@H]2C(=O)NC[C@H](CCC(=O)Nc2ccccc2)N3C)cc1
-1%[70.6 µM] | c1ccc(NCC2CN(Cc3ccccn3)CC23CN(c2ccccc2)C3)cc1 (stereo unspecified)
1% | O=C(NCCC1=CCCCC1)C1CCN(C(=O)N2CC3CC(C2)[C@H]2CCCC(=O)N2C3)CC1 (stereo partly specified)
-25% | COc1ccc(-c2cc(N3CCCC(NC(=O)c4ccc5[nH]ccc5c4)C3)n[nH]2)cc1 (stereo unspecified)
-5% | O=C(NCc1cccnc1)C1CCN(c2nc(-c3ccccc3)nc3c2CCC3)CC1
4% | Cn1cc(C(=O)N2CCC3(CC2)CC(=O)N(CCCc2ccccc2)C3)cn1
1% | Cc1noc(-c2ccc(OC(F)(F)F)cc2)c1C(=O)NC(C)CCc1ccccc1 (stereo unspecified)
0% | CC(=O)Nc1ccc(C2(C(=O)NCc3cc(F)cc(F)c3)CCCCC2)cc1
3%[70.6 µM] | CS(=O)(=O)N1CCN(C(=O)c2cccs2)C[C@H]1C(=O)N[C@H]1CCCNC1=O
-25% | CC1CCCN(C(=O)c2cc3c(s2)CCN(C(=O)c2ccc(Cl)cc2)C3)C1 (stereo unspecified)
4% | Cc1cccc(OCCc2noc(C3CCCCN3Cc3cccnc3)n2)c1 (stereo unspecified)
11µM* | CCc1cc(N2CCOC(c3ccc4cc(OC)ccc4c3)C2)nc(C)n1 (stereo unspecified)
-3% | CCCn1c(C)cnc1CC1CCN(C(=O)CC(C)C)C1 (stereo unspecified)
-21% | Fc1ccc(OCC2CCCN(c3ccc(Cn4ccnc4)cn3)C2)cc1 (stereo unspecified)
-2% | CC(C)c1nc(CCNC(=O)c2ccc(C3CCNC3)cc2)cs1 (stereo unspecified)

# (cont.)
NPR1 antag | Compound
-9% | Cc1ccc(C(CC(=O)N2CCC(C)CC2)c2cn(C)c3ccccc23)cc1 (stereo unspecified)
1% | CO[C@H]1C(=O)N(C(C)C)[C@H]1C1CCN(C(=O)c2cccc3[nH]ccc23)CC1
2% | CN(C)CC1(O)CCC2(CCN(C(=O)c3cccc(F)c3)CC2)CC1
2% | COCCN1CC(C(=O)N(C)Cc2ccc(OC)c3ncccc23)CCC1=O (stereo unspecified)
2% | CC(C)n1c(CNC(=O)C2CC(=O)N(c3n[nH]c4ccccc34)C2)nc2ccccc21 (stereo unspecified)
0% | C[S+](=O)([O-])N1Cc2ccccc2CC12CN(C(=O)c1ccc(C(F)(F)F)cc1)C2
2% | NC(=O)NCCC(=O)N1CCc2[nH]nc(-c3cccc4ccccc34)c2C1
0% | COc1ccc(CNC(=O)NCC23CCC=C2N(C)C(=O)CC3)cc1 (stereo unspecified)
4% | CCNC(=O)c1cccnc1OC1CCN(C(=O)c2ccco2)C1 (stereo unspecified)
3% | N#Cc1cccc(C(=O)N2CCC(C(=O)N3CCCCCCNC(=O)CC3)CC2)c1
-1% | Cc1ccc(CN2CCCCCNC(=O)[C@@H]3CCC[C@@H]32)o1
0%[70.6 µM] | COCC(=O)NC[C@@H]1C=C(C)[C@H](CC(=O)N2CCCC2)C[C@H]1C(C)C
4% | CS(=O)(=O)N1CCCN(Cc2cn[nH]c2-c2cccs2)CCNC(=O)CC1c1ccccc1 (stereo unspecified)
4% | COCCOCC(=O)N1CCCCCCNC(=O)[C@@H]2C[C@@H](c3nc(-c4cccnc4)no3)C[C@@H]21
? | O=C(NCc1nnc2cc(-c3nc(C4CC4)no3)ccn12)c1ccc(F)c(F)c1
-2% | COc1cccc(C(=O)N2CCC(N3C[C@H](O)C[C@H]3C(=O)N3CCN(c4ncccn4)CC3)CC2)c1
-4% | COCCN1CCN(C[C@@H]2C=C(C)[C@H](Cc3nnc(-c4cccnc4)o3)C[C@H]2C(C)C)CC1
1%[70.6 µM] | COCC(=O)N1CCCc2nc(C)nc(-c3ccc(O)cc3)c2C1
7% | CN1C(=O)CC(C(=O)O)C12CCN(Cc1cccc(C(=O)O)n1)CC2 (stereo unspecified)
-4% | CN(C)C[C@@H]1CN(Cc2ccccc2)C[C@H]1NC(=O)c1cc(C2CC2)[nH]n1
-1% | CC(C)N1CCC(OCCCNC(=O)CN2CCCc3nc(C4CC4)ncc3C2=O)CC1
-4% | O=C1CCN(S(=O)(=O)c2cccc3cccnc23)CCCC(CO)CCN1 (stereo unspecified)
12% | Cn1cccc1-c1nc(-c2nnn3c2COC(c2ccccc2Cl)C3)no1 (stereo unspecified)
0% | Cc1ccc(S(=O)(=O)N2CCN(C3CCN(C)C3=O)CC2)cc1C (stereo unspecified)
-21% | CCC(c1ccccc1)N1Cc2cc(NS(=O)(=O)c3ccc(F)cc3)ccc2OC(C)C1=O (stereo unspecified)
1% | CCC1(N2CCN(C(=O)c3ccc(F)c(Cl)c3)CC2)CCN(S(C)(=O)=O)C1 (stereo unspecified)
-2% | O=C(Nc1cccc(-c2ccco2)c1)C1CCN(C(=O)NCc2ccco2)CC1
-7%[70.6 µM] | Cn1c([C@H]2CCN(Cc3cnc4ccccc4c3)C2)nc2ccccc21
-8% | CN1C(=O)c2cccn2CC1C(=O)NCc1cccs1 (stereo unspecified)
-1% | COc1cc(CN2C[C@@H](CO)[C@H](C3CCN(C(C)=O)CC3)C2)ccc1F
-2% | O=C(c1ccsc1)N1CC[C@@H]2COCCN(Cc3ccccc3)[C@@H]2C1
2% | Cn1ccnc1CNCC1(COc2cccnc2)C[C@@H](O)[C@@H](O)C1 (stereo partly specified)
0% | CCN1C(=O)Cc2cc(C(=O)NCc3ccc(F)cc3Cl)ccc21
4% | Cc1ccc(-c2nc(-c3nnn4c3COC(c3ccccc3Cl)C4)no2)cc1 (stereo unspecified)

# Rewritten as labelled records: 4 of the compounds above
CC1(Cc2ccc3c(c2)OCO3)CCCN(C(=O)CCCn2ccnc2)C1 (stereo unspecified)
- NPR1 antag: -13%
CCc1cc(N2CCOC(c3ccc4cc(OC)ccc4c3)C2)nc(C)n1 (stereo unspecified)
- NPR1 antag: 11µM*
CC(=O)Nc1ccc(C2(C(=O)NCc3cc(F)cc(F)c3)CCCCC2)cc1
- NPR1 antag: 0%
CNC(=O)[C@@H]1CN(Cc2cccc(Cl)c2F)C[C@H]1CO
- NPR1 antag: 7%
